A488 autofl: qHTS Assay for Spectroscopic Profiling in A488 Spectral Region. compound autofluorescence, A488 spectral region, dye equivalency; stronger effect = higher value. max dye equivalency, M. 59,000 compounds, 0.1% hits; active = above 10 nM dye equivalent; inconclusive = 1 to 10 nM; inactive = 1 nM or less; about half of its hits are not listed in these tables;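 also: highest value over a series up to 38 µM; compound alone in buffer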
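Compounds pin-transferred into 100 mM Tris buffer, pH 8.0, incubated 15 min at room temperature, then imaged with 480 nm excitation/540 nm emission filters. Fluorescence converted to Alexa 488 dye-equivalent concentration via an on-plate six-point A488 standard curve.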
AID923: qHTS Assay for Allosteric/Competitive Inhibitors of Caspase-1: Spectroscopic Profiling in AFC Spectral Region. compound fluorescence, AFC spectral region (405/520 nm); almost no hit is shown here. Potency, µM (top dose mostly 57.5 µM), for the others: top-dose fluorescence increase, most hits filed as activators. 75,000 compounds, 1.1% hits. AID 923, 2007; active = well fitted activation curve with a large enough effect; inconclusive = small, poorly fitted or top-dose-only effect;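 also: potency is read from the fitted curve at half-maximal effect; 0% is about no effect; scaled to a free AFC standard on each plate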
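Baseline compound fluorescence (AFC region, 405 nm ex/520 nm em) taken from the intercept of kinetic reads with 50 nM caspase-1 and 5 uM Ac-WEHD-AFC; normalized to an on-plate AFC standard curve; compounds titrated up to 57 uM.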
TSHR agonist: qHTS Assay for Agonists of the Thyroid Stimulating Hormone Receptor; Thyrotropin receptor (Homo sapiens), P16473; 73,000 compounds, 0.48% hits; Potency, µM (doses to about 57.1 µM), for the others: at the top dose activation, actives largely listed as activators; HEK293-CNG-TSHR cells (CNG channel as cAMP sensor), membrane potential dye, cAMP; active = well fitted activation curve of enough size with the parental cells flat; inconclusive = any curve in the parental cells; inactive = parental cells flat and receptor cells flat or falling; also: potency is read from the fitted curve at half-maximal effect; % of control where 0% means no effect; weak receptor curves with flat parental cells got no call and are not listed
Target sequence (P16473 whole entry, looked up): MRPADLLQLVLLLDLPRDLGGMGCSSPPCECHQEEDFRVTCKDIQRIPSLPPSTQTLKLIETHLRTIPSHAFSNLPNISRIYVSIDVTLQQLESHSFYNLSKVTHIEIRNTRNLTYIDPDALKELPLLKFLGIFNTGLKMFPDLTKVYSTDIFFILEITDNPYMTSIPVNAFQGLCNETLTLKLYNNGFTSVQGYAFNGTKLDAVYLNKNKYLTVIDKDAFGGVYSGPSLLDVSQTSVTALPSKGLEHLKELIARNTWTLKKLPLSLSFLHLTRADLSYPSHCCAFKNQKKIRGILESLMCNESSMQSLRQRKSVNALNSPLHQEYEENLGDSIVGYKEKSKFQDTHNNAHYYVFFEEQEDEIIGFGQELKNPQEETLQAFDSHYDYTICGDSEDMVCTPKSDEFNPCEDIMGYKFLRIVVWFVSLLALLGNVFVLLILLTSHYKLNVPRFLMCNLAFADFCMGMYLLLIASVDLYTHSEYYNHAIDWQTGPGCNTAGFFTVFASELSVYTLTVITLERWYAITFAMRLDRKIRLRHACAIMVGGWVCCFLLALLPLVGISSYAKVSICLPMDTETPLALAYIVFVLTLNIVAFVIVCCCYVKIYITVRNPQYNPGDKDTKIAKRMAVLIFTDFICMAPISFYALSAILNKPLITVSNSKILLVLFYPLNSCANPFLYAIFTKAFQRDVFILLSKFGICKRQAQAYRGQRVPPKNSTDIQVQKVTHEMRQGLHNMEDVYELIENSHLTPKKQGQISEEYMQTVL
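cAMP rise detected as CNG-channel membrane depolarization by fluorescent dye (emission 590 nm), 30 min after compound, following 60 min dye loading containing 100 uM RO 20-1724 at room temperature. Cells: TSHR/CNG HEK 293, with parental CNG HEK 293 as control.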
A647 autofl: qHTS Assay for Spectroscopic Profiling in A647 Spectral Region. AID 592, 2007. Compound fluorescence, A647 channel (570/671 nm), Tris buffer. max dye-equivalent concentration, M. 59,000 tested, under 10 active; active means above 1 µM dye equivalent; inconclusive means 0.1 to 1 µM; inactive means 0.1 µM or less;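 also: values scaled relative to a standard on each plate; highest value over a series up to 38 µM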
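Fluorescence read (570 nm ex, 671 nm em) after 15 min RT incubation of compounds in 100 mM Tris buffer, pH 8.0; values expressed as dye-equivalent concentration against a six-point A647 standard series on each plate.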
Resorufin fluor: qHTS Assay for Spectroscopic Profiling in Resorufin Spectral Region. max dye-equivalent concentration, M. AID 588, 2007. 59,000 compounds, 0.04% hits. Compound fluorescence, resorufin region 547/598 nm, buffer; stronger effect = higher value; active = above 10 nM dye equivalent; inconclusive = 1 to 10 nM; inactive = 1 nM or less; a few of its hits are not listed in these tables; also: highest value over a series up to 38 µM
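Read-out: intrinsic compound fluorescence at ex 547/em 598 nm after 15 min at RT in pH 8.0 Tris (100 mM). Values expressed as resorufin-equivalent concentration from per-plate standard series.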
* = called active by the depositor; i = inactive; ? = inconclusive; . = not tested or not shown; & = joins results of further samples; [ ] = another dose, or the depositor's remark.

no.	Structure	A488 autofl	AID923	TSHR agonist	A647 autofl	Resorufin fluor
1	COc1ccc2c(c1)[nH]c1c(=O)n(CCN(C)C)cnc12	i	.	.	3.2e-08	i
2	COCCn1c(-c2ccc(-c3ccccc3Cl)o2)nc2c1c(=O)[nH]c(=O)n2CC(C)C	i	2.1%	12%	1e-09	i
3	O=S(=O)(NC1CC1)c1ccc(S(=O)(=O)N2CCCC3(CCCCC3)C2)cc1	i	-0.5%	0%	1e-09	i
4	COCCn1nnnc1C(CC(C)C)N1CCN(c2cccc(OC)c2)CC1 (configuration not stated)	i	0.8%	?	5.1e-09	i
5	Cn1ncc2c(NCc3ccccc3)ncnc21	i	-0.4%	-5%	1.5e-08	i
6	CCCCC(=O)Nc1ccc2oc(-c3ccncc3)nc2c1	i	2.0%	3%	3.5e-09	i
7	COc1ccc(CC(NC(=O)c2ccccc2)C(=O)NCC(=O)O)cc1 (configuration not stated)	.	3.5%	-5%	.	.
8	CC(=O)Nc1ccc(C(=O)Nc2ccc(S(=O)(=O)N3CCCC3)cc2)cc1	.	1.6%	-7%	.	.
9	Cc1cc(O)c(-c2n[nH]c3c2C(c2cccc(O)c2)N(Cc2cccnc2)C3=O)cc1Cl (configuration not stated)	i	-1.5%	27%	1e-09	i
10	O=C(CCc1ccccc1)Nc1ccc(N2CCOCC2)cc1	.	0.8%	-4%	.	.
11	O=c1c2ccccc2n(Cc2ccc(F)cc2)c(=O)n1C1CCCC1	i	0.5%	?	2.7e-09	i
12	CCSc1ccc2c(c1)N(CCCN1CCN(C)CC1)c1ccccc1S2	i	-0.1%[25.7 µM]	2%[25.6 µM]	1.3e-08	i
13	CCn1c(SCC(=O)OCC(=O)N2c3ccccc3NC(=O)C2(C)C)nnc1-c1ccco1	i	-3.1%	-1%	8.7e-09	i
14	Cc1c(S(=O)(=O)N2CCc3ccccc3C2)c(=O)n(C)c(=O)n1C	.	-0.1%	7%	.	.
15	O=c1[nH]c2cc3c(cc2cc1C(c1nnnn1C1CCCC1)N1CCCc2ccccc21)OCCO3 (configuration not stated)	i	14%	7%	7.1e-09	i
16	O=C1Nc2ccccc2[C@]1(O)Cc1ccccn1	i	-2.0%[11.5 µM]	-3%[11.4 µM]	8.6e-09	i
17	CCOC(=O)CSC1=C(C#N)C(C)C2=C(CCCC2=O)N1 (configuration not stated)	i	7.3%	1%	1e-09	i
18	CC(C)(C)NS(=O)(=O)c1ccc(CCC(=O)N2CCOCC2)cc1	i	0.0%	8%	1.2e-08	i
19	C=C(C)C(=O)OCC1CN2C(CCC(C)C2c2ccc(Br)cc2)C(=O)O1 (configuration not stated)	.	-0.3%&-1.5%&1.6%[11.5 µM]	?	.	.
20	Cc1nn(C)c(C)c1S(=O)(=O)N1CCC(C(=O)NCCC2=CCCCC2)CC1	.	-0.4%	1%	.	.
21	COc1ccc(-c2nn(-c3ccccc3)cc2/C=N/n2cnnc2)cc1OC	i	-0.6%	?	6.9e-09	i
22	COC(=O)[C@@]1(Cc2ccc(OC)cc2)[C@H]2c3cc(C(=O)N4CCCC4)n(Cc4ccc(Cl)c(C(F)(F)F)c4)c3C[C@H]2CN1C(=O)c1ccccc1	.	2.7%	?	.	.
23	CN(C(=O)c1cc2nc(-c3ccco3)cc(C(F)(F)F)n2n1)C1CCCCC1	.	2.2%	6%	.	.
24	CC(C)(C)C(=O)OCC1OC(n2cnc(C(N)=O)n2)C(O)C1O (configuration not stated)	i	1.1%	10%	1e-09	i
25	CN(C)Cc1ccccc1-c1nc(N(C)C)c2ccccc2n1	i	2.6%	?	3.9e-09	i
26	CCC(=O)N1c2ccc(S(=O)(=O)CCC(=O)NCc3ccc4c(c3)OCO4)cc2CC1C (configuration not stated)	i	-0.2%	5%	3.3e-09	i
27	COC(=O)CCC(NC(=O)c1cc(-c2ccc3c(c2)OCCO3)oc1C)C(=O)OC (configuration not stated)	i	2.4%	0%	4.7e-08	i
28	CCOc1ccc2nc(C(C)O)[nH]c2c1 (configuration not stated)	i	3.4%	5%	2.3e-09	i
29	COC(=O)c1ccc(C(NC(=O)OCc2ccccc2)/C(=C/[C@@H](C)C(=O)NCc2cc(F)cc(F)c2)c2cccnc2)cc1 (some centres not stated)	.	0.1%	12%	.	.
30	C=CCNC(=O)CN(c1ccc(F)cc1)S(=O)(=O)c1ccc(OC)cc1	i	1.8%	2%	1.5e-08	i
31	CCOC(=O)Cc1c(C)nc2c(-c3cccc(Br)c3)c[nH]n2c1=O	.	-0.7%	-28%	.	.
32	Cc1ccc(C2C(C(=O)c3sc(C)nc3C)=C(O)C(=O)N2CCCN(C)C)o1 (configuration not stated)	i	3.3%	-1%	5.5e-09	i
33	O=C(O)CCc1ccc(-c2cccs2)n1CCC(=O)O	i	5.9%	2%	1e-09	i
34	Cc1cccc(N2C(=O)SC(N(CC(=O)O)c3cccc(C)c3)C2=O)c1 (configuration not stated)	.	2.4%	0%[11.4 µM]	.	.
35	NC(=O)CN1CCN(c2ccccc2F)CC1	.	-0.3%	-2%	.	.
36	CN(C)CCNc1oc(COc2ccc(-c3ccccc3)cc2)nc1C#N	i	-0.8%	14%	7.2e-09	i
37	CN1CCN(c2c3c(c(C#N)c4nc5ccccc5n24)CCCC3)CC1	i	.	.	1e-09	i
38	CCOc1ccc(N2C(=O)C3CCCN3C2=O)cc1 (configuration not stated)	i	-0.2%	-3%	1.1e-08	i
39	CCn1c(Cn2nnc(-c3ccccc3)n2)nnc1SCC(=O)Nc1ccc(C(C)=O)cc1	i	-0.2%	?	4.2e-09	i
40	Cc1ccc2c(c1)cc(CN(Cc1cccs1)C(=O)c1ccco1)c1nnnn12	i	-0.9%	?	1e-09	i
41	CCC(C)NC(=O)C1CCCN(S(=O)(=O)c2ccc(-n3cnnn3)cc2)C1 (configuration not stated)	i	-3.0%	10%	3e-08	i
42	CC1=CCC(COC(=O)Nc2ccccc2)CC1 (configuration not stated)	i	0.6%	?	7.5e-09	i
43	Cc1cc(C)c(NC(=O)CSc2nnc(-c3ccncc3)n2Cc2ccco2)c(C)c1	i	1.0%	3%	5.2e-08	i
44	CC(C)OCCCN1CN(S(=O)(=O)c2ccccc2)c2nc3ccccc3nc21	i	1.1%	18%	1e-09	i
45	FC(F)(F)c1nnc2ccc(N3CCOCC3)nn12	i	-1.6%	10%	3e-08	i
46	CC(Oc1ccc(Cl)cc1)C(=O)Nc1ncccn1 (configuration not stated)	i	1.1%	-2%	1e-09	i
47	CC(=O)Nc1ccc(S(=O)(=O)N2CCC(NC(C)=O)(c3cccc(F)c3)CC2)cc1	i	2.1%	2%	1.2e-08	i
48	O=C(c1cnccn1)N1CCC2(CCN(Cc3ccccc3)CC2)CC1	i	3.0%	6%	5.7e-09	i
49	COc1ccc(-n2c(Cc3cccn3C)nnc2SCC(=O)Nc2ccccc2OC)cc1	.	1.0%	?	.	.
50	Cc1ccc(C)c2[nH]c(=O)c(C(c3nnnn3CCc3ccccc3)N3CCOCC3)cc12 (configuration not stated)	i	-1.1%	-5%	2.3e-09	i

51: CCn1c(=O)cc(N2CCCCC2)[nH]c1=O
52: O=C(c1cnn(-c2ccccc2)c1-n1cccc1)N1CCN(C2CCCCC2)CC1
53: COc1cc(NC(=O)CN2CC(c3ccccc3)CC2=O)cc(OC)c1 (configuration not stated)
54: CC1=[N+]([O-])C(C)(C)C(C)N(O)C1=O (configuration not stated)
55: COc1cc(-c2csc(C)n2)ccc1O
56: CCC1(C(=O)OC)NC(c2ccco2)C2C(=O)N(c3ccccc3)C(=O)C21 (configuration not stated)
57: COc1ccc(C)cc1NC(=O)C1CCCN(S(=O)(=O)c2cccc3nonc23)C1 (configuration not stated)
58: CN1CCN(c2nc3c(c(=O)n(C)c(=O)n3C)n2CC(=O)C23CC4CC(CC(C4)C2)C3)CC1

entry no. | 51 | 52 | 53 | 54 | 55 | 56 | 57 | 58
A488 autofl | i | . | . | i | i | i | i | i
AID923 | 0.8% | -3.7% | -1.3% | -0.3% | 0.1% | 6.5% | 1.5% | -0.8%
TSHR agonist | -8% | 3% | -14% | -3% | 4% | -4% | 1% | -5%
A647 autofl | 1e-09 | . | . | 4.3e-08 | 2.7e-08 | 6.7e-09 | 2.9e-08 | 3.1e-08
Resorufin fluor | i | . | . | i | i | i | i | i

Whole records, quoted from the list. Screens in order: A488 autofl	AID923	TSHR agonist	A647 autofl	Resorufin fluor
O=C(O)CCc1ccc(-c2cccs2)n1CCC(=O)O in the list: i	5.9%	2%	1e-09	i
COc1ccc(C)cc1NC(=O)C1CCCN(S(=O)(=O)c2cccc3nonc23)C1 (configuration not stated) in the list: i	1.5%	1%	2.9e-08	i
CN(C(=O)c1cc2nc(-c3ccco3)cc(C(F)(F)F)n2n1)C1CCCCC1 in the list: .	2.2%	6%	.	.

More records
59: Nn1c(COc2ccccc2)nnc1SCc1cc(=O)[nH]c2ccccc12
60: CCOC(=O)c1csc(NC(=O)CSc2nnnn2CC)n1
61: Cc1ccc(Cn2nnnc2CN2CCC(O)(c3ccc(F)cc3)CC2)cc1
62: c1nc(N2CCOCC2)c2cc(-c3ccoc3)ccc2n1
63: CCN(CC)S(=O)(=O)c1cc(C(=O)O)ccc1Cl
64: Cc1cc(NC(=O)CSc2nnc(-c3cccnc3)n2C)no1
65: CCOC(=O)N1CCN(C(=O)c2oc3ccc(S(=O)(=O)N4CCOCC4)cc3c2C)CC1
66: CCCCCCCCCCCCC/C=C\[C@H](O)[C@H](N)CO

entry no. | 59 | 60 | 61 | 62 | 63 | 64 | 65 | 66
A488 autofl | i | i | i | i | i | i | i | i
AID923 | -1.6% | 0.0% | 0.1% | 2.2% | -0.2% | -1.3% | 1.3% | .
TSHR agonist | 2% | 2% | 0% | 6% | -7% | 1%[11.4 µM] | -5%[11.4 µM] | 3%
A647 autofl | 2.7e-08 | 1e-08 | 1e-09 | 3.1e-08 | 1e-09 | 1e-09 | 1.6e-08 | 2.4e-08
Resorufin fluor | i | i | i | i | i | i | i | i

67: CCOC(=O)C1C(=O)CC(C)(O)C(C(=O)OCC)C1c1cccc(OC(F)(F)C(F)F)c1 (configuration not stated)
68: CC1CN(c2oc(-c3ccco3)nc2C#N)CC(C)O1 (configuration not stated)
69: O=C(CSc1ncnc2c1oc1ccccc12)NCC1CCCO1 (configuration not stated)
70: CCOc1ccccc1Nc1nnc(SCc2ccc(C(=O)OC)o2)s1
71: CCN(CC)S(=O)(=O)c1ccc(C(=O)OCn2nnc3ccccc3c2=O)cc1
72: COc1ccc2c(=O)cc(-c3ccccc3)oc2c1O
73: O=C(NCc1ccccn1)C1CCN(S(=O)(=O)N2CCCC2)CC1
74: CC(C)NC(=O)c1cc2c(-c3ccc(Cl)cc3)nn(C)c2s1
75: O=C(CSc1nc(N2CCCCC2)nc(N2CCCCC2)n1)NC1CCCCC1
76: Cc1nc2nc(SCC(=O)NCc3ccco3)nn2c(C)c1Cc1c(F)cccc1Cl

entry no. | 67 | 68 | 69 | 70 | 71 | 72 | 73 | 74 | 75 | 76
A488 autofl | i | i | i | i | i | i | i | . | i | i
AID923 | 1.6% | 0.4% | -0.3% | -0.4% | -0.3% | -0.4% | 1.7% | -0.9% | -3.5% | 1.9%
TSHR agonist | 20% | 14% | 20% | . | 18% | -2% | 13% | 3% | . | ?
A647 autofl | 2.8e-08 | 1e-09 | 1e-09 | 2.2e-09 | 1e-09 | 1e-09 | 1.5e-08 | . | 1.8e-08 | 2.8e-08
Resorufin fluor | i | i | i | i | i | i | i | . | i | i

Assay outcomes (PubChem)

The list is partial (hit frequency here may not be typical).
